Source: PubChem
Cruzain Triton = cruzain (T. cruzi) inhibition with detergent. Potency, µM, for the others: max response, negative = inhibition, hits mostly inhibitors. P25779. AID 1478. purified cruzain, Z-FR-AMC fluorescence, 0.01% Triton. hit rate 0.43% among 200,000; active = well fitted curve in the direction sought with a large enough effect; inconclusive = small, poorly fitted or top-dose-only effect, or another doubt; inactive = no such curve, though single readings can be large; an effect the other way counts as inactive or inconclusive;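 also: plate controls were neutral wells for no effect and buffer without enzyme for full effect; nearly all actives have a fitted effect of over 40% in size; top concentration of the series not given in the record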
Target sequence (P25779 123-467 limits assumed): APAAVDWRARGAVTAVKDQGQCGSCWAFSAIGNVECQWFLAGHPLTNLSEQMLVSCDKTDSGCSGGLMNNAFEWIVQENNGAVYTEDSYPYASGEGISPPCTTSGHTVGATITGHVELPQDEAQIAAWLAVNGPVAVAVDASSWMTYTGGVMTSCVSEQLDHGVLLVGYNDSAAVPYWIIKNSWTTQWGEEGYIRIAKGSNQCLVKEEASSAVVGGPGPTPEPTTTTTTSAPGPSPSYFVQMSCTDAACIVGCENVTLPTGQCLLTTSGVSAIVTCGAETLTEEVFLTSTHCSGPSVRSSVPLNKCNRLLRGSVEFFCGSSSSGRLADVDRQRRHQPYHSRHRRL
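Steps: dispense cruzain (1.5 nM final) in acetate buffer pH 5.5 with DTT and 0.01% Triton X-100; pin-transfer compounds; incubate 15 min RT; add Z-FR-AMC (2 uM final); read fluorescence every 30 s, using the 60 s intensity change.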
2A StopGo = lowers the luciferase signal of an FMDV 2A StopGo reporter; human cells with a luciferase reporter of 2A StopGo recoding; control for the full effect not named in the record; hit rate 1.2% among 410,000; AID 1159524; Potency, µM (highest dose often 57.9 µM), inactives show at the top dose signal change, negative = less light; active = well fitted falling curve with a large enough effect; inconclusive = small, poorly fitted or top-dose-only effect; inactive = no such curve, though single readings can be large or run the other way; tested in HEK293T cells; also: % is scaled to controls: 0 for no effect and ±100 for the full control effect; nearly all actives have a fitted effect of over 45% in size; luciferase light after 4 h
RE007 growth inh = less growth of the S. pombe RE007 Vpr strain; hit rate 0.21% among 360,000; S. pombe RE007 Vpr strain, BacTiter-Glo ATP luminescence, 24 h; control for the full effect not named in the record; Potency, µM (top dose mostly 92.2 µM), inactives show at the highest dose activity change, negative = less growth; active = well fitted falling curve with a large enough effect; inconclusive = small, poorly fitted or top-dose-only effect; inactive = no such curve, though single readings can be large or run the other way;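 also: % is scaled to controls: 0 for no effect and ±100 for the full control effect; nearly all actives have a fitted effect of over 50% in size; the assay follows cell death caused by Vpr and the record does not say whether a fall means rescue or toxicity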
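Fission yeast strain RE007, carrying one chromosomally integrated HIV-1 vpr copy, was seeded at OD 0.01 in PMG+AL medium with 23 nL pinned compound. After 24 h at 30 °C and 99% humidity, viability was read by BacTiter-Glo luminescence.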
Cruzain inh noDet = inhibitors of Trypanosoma cruzi cruzain without detergent | P25779 | purified cruzain, Z-FR-AMC fluorescence, no detergent | Potency, µM, inactives show max response, negative = inhibition, actives largely listed as inhibitors | hit rate 2.3% among 200,000; active = well fitted curve in the direction sought with a large enough effect; inconclusive = small, poorly fitted or top-dose-only effect, or another doubt; inactive = no such curve, though single readings can be large; an effect the other way counts as inactive or inconclusive;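 also: plate controls were enzyme without inhibitor for no effect and buffer without enzyme for full effect; nearly all actives have a fitted effect of over 40% in size; top concentration of the series not given in the record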
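Purified cruzain at 1.5 nM, pre-incubated 15 min with compound at room temperature in 100 mM sodium acetate pH 5.5, 5 mM DTT, 0.00005% Triton X-100. Reaction started with 2 uM Z-FR-AMC; AMC fluorescence increase over 60 s gives rate.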
NS1 inh = blocks influenza NS1 protein function. AID 2326. Potency, µM (doses to about 46.1 µM), inactives show top-dose activity, positive = more growth. hit rate 0.4% among 270,000. S. cerevisiae slowed by influenza A NS1, growth recovery by OD600; also: actives are rising curves; nearly all actives have a fitted effect of over 50% in size
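Compounds were scored for reversing the slow growth caused by influenza A NS1 in S. cerevisiae, measured by optical density at 600 nm. Assay medium contained 2% galactose at pH 6.0; NS1-free yeast of the same strain were the positive control.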
SARS PLpro yeast = blocks SARS-CoV papain-like protease in a yeast assay; S. cerevisiae expressing SARS-CoV PLpro, growth rescue; control for the full effect not named in the record; Potency, µM (titrated, usually from 32.9 µM), for inactives: top-dose activity, positive = growth rescue; hit rate 0.19% among 330,000; also: 0% is about no effect; nearly all actives have a fitted effect of over 55% in size; growth read by luminescence after 48 h
MARV entry inh = inhibitors of Marburg virus binding or cell entry | AID 540276 | hit rate 1.8% among 300,000 | Potency, µM (series often up to 37.8 µM), inactives show top-dose activity change, negative = inhibition, actives largely listed as inhibitors | Marburg virus pseudotyped entry inhibition, cell reporter; control for the full effect not named in the record; about a third of the inactives were read at about 46 µM; active = well fitted inhibition curve with a large enough effect; inconclusive = small, poorly fitted or top-dose-only effect, or effect the other way; inactive = flat fitted curve, though single readings scatter; tested in HEK293 cells; about a fifth of its hits are not listed in these tables; also: % is scaled to controls: 0 for no effect and ±100 for the full control effect; luciferase read-out
LASV entry inh = inhibitors of Lassa virus binding or cell entry; Lassa virus pseudotype entry inhibition, cell reporter; control for the full effect not named in the record; Potency, µM (top dose mostly 37.9 µM), for the others: at the highest dose activity change, negative = inhibition, hits mostly inhibitors; hit rate 1.2% among 300,000; AID 540256; active means well fitted inhibition curve with a large enough effect; inconclusive means small, poorly fitted or top-dose-only effect, or effect the other way; inactive means flat fitted curve, though single readings scatter; tested in HEK293 cells; also: % is scaled to controls: 0 for no effect and ±100 for the full control effect; nearly all actives have a fitted effect of over 50% in size; luciferase read-out
* = called active by the depositor; ? = inconclusive; / = no result given; & = joins results of further samples; [ ] = another dose, or the depositor's remark. Unless noted, calls follow the shape of the dose curve; as a rule, active means well fitted rising curve with a large enough effect; inconclusive means small, poorly fitted or top-dose-only effect; inactive means no such curve, though single readings can be large or run the other way. Potency is read from the fitted curve at half-maximal effect. Compounds were not picked by outcome; overall some 4.8% were active at least once.

SMILES | Cruzain Triton | 2A StopGo | RE007 growth inh | Cruzain inh noDet | NS1 inh | SARS PLpro yeast | MARV entry inh | LASV entry inh
COC(=O)c1ccccc1NC(=O)Nc1ccc(C)cn1 | / | 27% | -3% | / | 4% | -1% | 13%[46.1 µM] | 10%[46.1 µM]
N#C/C(=C\c1cccnc1)C(=O)Nc1ccc(C(=O)O)cc1 | / | 33% | -2% | / | 6% | 2% | 16%[46.1 µM] | 0%[46.1 µM]
CCc1cccc(CC)c1NC(=S)Nc1cccc(Cl)c1Cl | / | -10% | -9% | / | -3% | 1% | 1%[46.1 µM] | -4%
Cc1ccc(Cl)cc1NC(=O)c1oc2ccc(S(=O)(=O)N3CCC4(CC3)OCCO4)cc2c1C | 0.1% | -13% | / | 13% | / | / | / | 1%[46.1 µM]
COc1cccc(NC(=O)CN(C)C(=O)C2CC(=O)N(CCc3ccc(OC)c(OC)c3)C2)c1 (stereo not drawn) | / | -27% | 6% | / | / | / | -14% | 23%
COC(=O)c1ccccc1NC(=O)c1nc(S(=O)(=O)Cc2cccc(C)c2)ncc1Cl | -1.7% | ? | / | 6% | / | / | 2%[46.1 µM] | 0%[46.1 µM]
Fc1ccc(CSc2nnc3ccccn23)c(Cl)c1 | / | 68%[activator] | -1% | / | / | -2% | ? | ?
C=C1c2ccc(C)cc2NC(=O)N1c1ccccc1 | -1.7% | 13% | -20% | -7% | 17% | 5% | 16% | 8%
COC(=O)c1ccc(NC(=O)c2ccco2)cc1 | 1.1% | 12% | -24% | 1% | -84% | -5% | -3% | ?
CC(=O)Nc1ccc(NC(=O)c2cc(=O)c3cc(C)cc(C)c3o2)cc1 | / | -21% | -20% | / | 2% | 0% | / | /
Cc1ccc(NC(=O)C(NC2CCCC2)c2ccccc2)cc1Cl (stereo not drawn) | / | -12% | -22% | / | / | -9% | ? | ?
COc1ccccc1NC(=O)C/C(N)=N/OCC(=O)Nc1cccc(Cl)c1 | / | 18% | 5% | / | / | -4% | 7% | -8%
CC(C)c1ccc(NC(=O)Nc2csc3c2CCCC3)cc1 | -8.5% | 0% | / | -22% | / | / | ? | /
CN(C1=C(NC(=O)c2ccccc2)C(=O)c2ccccc2C1=O)C1CCS(=O)(=O)C1 (stereo not drawn) | -5.1% | 10µM* | -18% | -9% | 8% | -8% | ? | ?
O=C1c2ccccc2NC(c2ccccc2F)N1NS(=O)(=O)c1ccccc1 (stereo not drawn) | / | -6% | -7% | / | -23% | -2% | -8%[46.1 µM] | -10%
CC(=O)NNC(=O)c1sc(=S)n2c1[nH]c(=O)c1sccc12 | / | 2% | -12% | / | / | 0% | ? | -8%
CCC(C(=O)NC(C)(C)C)N(C(=O)Cn1nnc(-c2cccs2)n1)c1cnc2ccccc2c1 (stereo not drawn) | -11% | 0% | 1% | -7% | -9% | -10% | -18% | 0%
CN(C=[N+](C)C)c1cccc2c1C(=O)c1ccccc1C2=O | -7.1% | -22% | -14% | 9% | 4% | 6% | ? | ?
CC1CN(Cc2nc3c(c(=O)[nH]c(=O)n3C)n2CC(N)=O)CC(C)O1 (stereo not drawn) | 3.7% | -12% | 6% | -8% | 3% | -2% | / | /
CCNC(=O)c1c(O)c2c([nH]c1=O)CCCC2 | / | 9% | 3% | / | -10% | 3% | / | /
COc1ccc(C/C(C)=N/NC(=S)Nc2ccccc2F)cc1 | / | 58%[activator] | -7% | / | ? | 1% | 13%[46.1 µM] | ?
O=S(=O)(c1ccccc1)c1cnc(-c2cccnc2)nc1-c1ccc(Cl)c(Cl)c1 | 3.3% | 5% | 1% | ? | 2% | -5% | 14% | -2%
CC(C)N(C(=O)CSc1nc2ccc(Cl)cc2[nH]1)c1ccccc1 | -5.4% | -18% | / | 8% | / | / | ? | -3%[46.1 µM]
O=[N+]([O-])c1ccc(O)c(/C=N/Nc2ccccc2[N+](=O)[O-])c1 | / | -16% | -7% | / | -4% | -4% | -1%[46.1 µM] | -17%[46.1 µM]
CCc1ccc(N2CCn3c2nc2c3c(=O)n(Cc3cccc(C)c3)c(=O)n2C)cc1 | -0.9% | 0% | / | 1% | / | / | / | -3%[46.1 µM]
(cont.)
SMILES | Cruzain Triton | 2A StopGo | RE007 growth inh | Cruzain inh noDet | NS1 inh | SARS PLpro yeast | MARV entry inh | LASV entry inh
COC(=O)c1ccc(Cl)cc1NC(=O)N(C)CCc1c(C)nn(C)c1C | -1.3% | 16% | / | -4% | / | / | / | -8%[46.1 µM]
CCC(=O)OCC(=O)Nc1ccc2c(c1)OCO2 | / | 16% | 3% | / | 9% | 0% | -10%[14.2 µM] | -17%
COc1ccc(CNn2c(-c3cccc(C)c3)nc3ccccc3c2=O)cc1OC | -3.0% | / | 20% | ? | -9% | 3% | ? | ?
O=C(NC(=S)Nc1ccccc1Br)C1CCCCC1 | / | 14% | -28% | / | / | 21% | -2% | ?
Cc1ccccc1NC(=O)COC(=O)c1ccccc1SCC(=O)N1CCCC1 | / | 8% | -2% | / | 0% | 1% | -2% | -1%
O=C(NCc1ccccn1)c1ccc(NS(=O)(=O)c2cccc(Cl)c2)cc1 | / | 12% | 2% | / | 4% | 1% | 10% | 3%
COc1cc(C(=O)OCC(=O)Nc2cccc(S(=O)(=O)N3CCCC3)c2)ccc1OCC(C)C | / | 0% | -5% | / | / | -14% | 2%[46.1 µM] | 13%
O=C(NCCN1CCOCC1)C(=O)NCC1OCCCN1S(=O)(=O)c1ccc(F)cc1 (stereo not drawn) | / | -12% | -30% | / | 1% | 2% | -10% | -2%
Cc1nn(-c2ccccc2)c(Cl)c1C(=O)N1CCN(c2ncnc3c2cnn3-c2ccccc2)CC1 | -4.0% | 6.3µM* | 35% | ? | -33% | 1% | 13µM* | 13µM*
COc1ccccc1CNC(=O)CCCN1C(=O)CSc2c1c(C)nn2-c1ccccc1 | -0.3% | -25% | / | -6% | / | / | / | -11%[46.1 µM]
O=C(C(=O)N1CCCc2ccccc21)c1cn(CC(=O)N2CCOCC2)c2ccccc12 | / | 2% | -14% | / | / | 16% | -9%[46.1 µM] | -11%[46.1 µM]
CC(=O)Oc1ccc(/C=N/NS(=O)(=O)c2ccc(C)cc2)c(OC(C)=O)c1 | / | 70%[activator] | -14% | / | -9% | -7% | / | /
Cc1csc(NC(=O)CCSCCc2ccccn2)n1 | 1.2% | -28% | 7% | -17% | -7% | -3% | / | /
Cc1c(NC(=O)c2ccccc2F)c(=O)n(-c2ccccc2)n1C | -1.8% | 7% | 7% | -2% | -6% | -2% | 0% | -2%
O=S(=O)(Nc1nc(-c2ccccc2)cs1)c1cc(Cl)ccc1Cl | / | 13% | -9% | / | -74% | -11% | 16% | 3%
COc1ccc(CN2CCCC(C(=O)Nc3cccc(-n4cnnn4)c3)C2)c(C)c1C (stereo not drawn) | / | -26% | -1% | / | 12% | 1% | / | /
COc1ccc(Nc2nc3c(S(=O)(=O)c4ccccc4)nnn3c3ccc(Cl)cc23)c(OC)c1 | -0.3% | ? | / | 12% | / | / | 16%[46.1 µM] | /
CCN(CC)C(=O)c1cn(C)c2ccc(S(=O)(=O)N(CC)CC)cc2c1=O | -1.7% | -6% | 13% | -6% | -3% | 6% | 13% | 0%
C1=C(CCNC2=NCCCCC2)CCCC1 | 0.4% | -3% | 10% | -4% | 20µM* | 17% | 7% | 6%
O=[N+]([O-])c1cccc(S(=O)(=O)NCCOc2cccc3cccnc23)c1 | / | -13% | 0% | / | 4% | ? | 4% | 17%
O=S(=O)(c1ccc(S(=O)(=O)N2CCCC3(CCCCC3)C2)cc1)N1CCCCC1 | 2.9% | / | -11% | 14% | -4% | 1% | 18% | -11%
O=C(CCc1nnc2ccc(NCCCN3CCCC3=O)nn12)NCc1ccccc1Cl | / | -8% | 2% | / | 7% | -4% | / | /
COc1ccc2[nH]c(C(=O)O)c(NS(=O)(=O)c3ccc(C)c(C)c3)c2c1 | / | -8% | -7% | / | 12% | -4% | / | /
O=C(c1cccn1-c1nnc(N2CCCC2)s1)N1CCN(c2ccc(F)cc2)CC1 | 0.8% | -8% | / | -3% | / | / | / | 14%[46.1 µM]
CC(/C=N/NC(=O)c1c(Br)cnn1C)=C\c1ccccc1 | -4.6% | 15% | 7% | -7% | -21% | 0% | 2% | 17%
Next entries.
SMILES | Cruzain Triton | 2A StopGo | RE007 growth inh | Cruzain inh noDet | NS1 inh | SARS PLpro yeast | MARV entry inh | LASV entry inh
CC1C(=O)N2CCCc3cc(NC(=O)c4ccccc4Br)cc1c32 (stereo not drawn) | / | -14% | 6% | / | / | -4% | 2% | 3%
CCC(CC(C)(C)O)C(=O)NNC(=S)Nc1ccccc1 (stereo not drawn) | / | 23% | -6% | / | -2% | 0% | 3%[46.1 µM] | -5%
CC(C)(C)c1ccc(C(=O)N2CCCC2c2cccs2)cc1 (stereo not drawn) | / | 8% | 21% | / | -36% | -3% | ? | ?
O=C(Cn1nc(Cl)nc1Cl)c1cc2ccccc2oc1=O | -5.8% | -18% | -27% | -12% | -149% | -23% | -10% | 12%
O=C(c1cnn2cccnc12)N1CCN(c2ccccc2)CC1 | 1.2% | / | -15% | -2% | -4% | -7% | ? | 23%
Cc1ccc(C)c(NC2=NCC(=O)N2c2ccc3c(c2)OCCO3)c1 | -1.9% | 14% | -10% | -5% | 18% | -6% | 3% | 2%
CC1(C)Cc2c(C#N)c(OCC(=O)c3ccc(Cl)cc3)nc(-c3ccoc3)c2CO1 | -4.6% | -5% | 0% | ? | 12% | -2% | 23% | 15%
COc1ccc(Cc2nnc(SCC(=O)N3CCN(c4ccccc4)CC3)o2)cc1 | -0.9% | -4% | 16% | 13% | -7%[9.22 µM] | -4% | -16% | -6%
O=C(CCl)NNc1nc(-c2ccccc2)c2cc(Cl)ccc2n1 | / | -26% | 4% | / | 22% | 17% | 6.3µM* | -27%[46.1 µM]
CCO/C([O-])=N/c1c[n+](N2CCOCC2)no1 | -6.1%&5.6%&-2.6%&-1.6% | 0%&-18%&4% | -7% | -5%&-5%&-4%&-1% | 8%&-5% | 0% | 6%&1%&1%&1%&1%&1%&1%&31%&1%&1%&1%&1% | ?
Cc1ccc(-n2c(=O)cc(N3CC(C)CC(C)C3)[nH]c2=O)cc1 (stereo not drawn) | 0.5% | -7% | -1% | -4% | 4% | 1% | 2% | -17%
COCCn1c(SCc2nc3ccccc3s2)nc2ccccc21 | -3.6% | / | 12% | 0% | -37% | 2% | -2% | 7%
